MgrA DNA FP – S. aureus MgrA activity modulators, primary screen, biochemical, S. aureus Newman, fluorescence polarization. MgrA-DNA binding. inhibition, %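 (about 10 µg/mL by stock and volumes)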. 84,000 compounds, 0.13% hits. AID 602314, 2012;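 active = above 50% in either of two replicates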;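 note: 0% = protein plus DNA without compound and 100% = DNA alone without protein; higher means less MgrA bound to DNA so lower polarization; one replicate is shown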
S aureus helic – inhibitors of S. aureus replicative helicase, primary screen, biochemical, fluorescence unwinding readout; AID 485395, 2010; purified S. aureus helicase, fluorescence unwinding assay; about half of the hits fall short of the stated cut; inhibition, %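 (tested at about 80 µM)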; 120,000 compounds, 0.05% hits;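 active = both duplicates at 50% or more, or one of them with a favoured structure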;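 note: 0% = mean of negative control wells and 100% = mean of positive control wells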
* = called active by the depositor; x = no result given; & = joins results of further samples.

SMILES	MgrA DNA FP	S aureus helic
COc1ccc2c(OC)cccc2c1	1.0	x
Cn1nc(-c2ccc(C(C)(C)C)cc2)[nH]c1=O	-2.3	x
COc1ccc(C(=O)Nc2ccc(C)cn2)cc1	-0.5	15.0
CC(OC(=O)c1ccc2ncsc2c1)C(=O)N1CCCCC1 (stereo unspecified)	x	-7.0
O=C(CSc1ccc(C(F)(F)F)cn1)c1ccc2c(c1)OCCO2	0.9	x
Cc1[nH]c2ccccc2c1SCc1n[nH]c(=S)n1C	0.5	x
Cc1nc(/N=C(\N)Nc2cccc(Cl)c2C)[nH]c(=O)c1C	x	-33.0
Cc1ccc2[nH]c(C)c(CCNS(=O)(=O)c3ccc4c(c3)CCN4S(C)(=O)=O)c2c1	x	19.0
O=C1/C(=C2/NCCN2C2CC(=O)N(c3ccccc3)C2=O)CC/C1=C\c1ccccc1 (stereo unspecified)	x	15.0
CN(C)c1ccc(C(=S)N2CCCC2)cc1Br	0.8	7.0
Cc1ccc(S(=O)(=O)/N=C(/NC(=S)Nc2ccccc2)c2ccccc2)cc1	4.8	1.0
O=C1CCN(C(=O)CCNC(=O)c2ccc(Cl)cc2)CC1	x	16.0
O=C(CCCc1ccccc1)Nc1ccccc1O	3.3	1.0
C=C(C)CC1(NC(C)c2ccccc2)CCCCC1 (stereo unspecified)	0.4	11.0
Cn1c(=O)n(CCOc2ccc3ccccc3c2)c2ccccc21	0.2	0.0
CCOc1ccc(Nc2nc(CC(=O)OC)cc(=O)[nH]2)cc1	x	8.0
O=CN(/C=C1\Sc2ccccc2C1=O)c1cccc2ccccc12	14.5	x
CCc1sc(-c2ccc(Cl)cc2)nc1C(=O)OC	-1.8	x
CCOc1cc(C2C(C(=O)OCc3ccc(OC)cc3)=C(C)NC3=C2C(=O)CCC3)cc(Cl)c1O (stereo unspecified)	3.2	x
CC1CCCC(C)N1/N=C/c1ccc(N(C)C)cc1 (stereo unspecified)	x	7.0

Single entries from above.
O=C1CCN(C(=O)CCNC(=O)c2ccc(Cl)cc2)CC1 – S aureus helic: 16.0
CC1CCCC(C)N1/N=C/c1ccc(N(C)C)cc1 (stereo unspecified) – S aureus helic: 7.0
O=CN(/C=C1\Sc2ccccc2C1=O)c1cccc2ccccc12 – MgrA DNA FP: 14.5
Cc1ccc2[nH]c(C)c(CCNS(=O)(=O)c3ccc4c(c3)CCN4S(C)(=O)=O)c2c1 – S aureus helic: 19.0
C=C(C)CC1(NC(C)c2ccccc2)CCCCC1 (stereo unspecified) – MgrA DNA FP: 0.4
Cn1nc(-c2ccc(C(C)(C)C)cc2)[nH]c1=O – MgrA DNA FP: -2.3
Cn1c(=O)n(CCOc2ccc3ccccc3c2)c2ccccc21 – S aureus helic: 0.0

Following part.
SMILES	MgrA DNA FP	S aureus helic
CCOC(=O)N1CCC(NC(=O)CNS(=O)(=O)c2ccc(Br)s2)CC1	x	12.0
CCO/C=C1\SC(=S)N(c2ccc(Cl)cc2)C1=O	-0.1	x
Cc1nc2sccn2c1C(=S)NC(=O)c1ccc(S(=O)(=O)N2CCCCCC2)cc1	x	17.0
COc1ccccc1-c1oc2ccccc2c(=O)c1OC(=O)c1cccs1	-0.1	-12.0
CC(=O)Nc1ccc(CC(C#N)C#N)cc1	0.2	x
CC(C)c1ccc(NC(=O)NC2(C(F)(F)F)Oc3ccccc3O2)cc1	1.0	12.0
Cc1cc(C)c(C#N)c(SCC(=O)NC2CC2)n1	x	9.0
Cc1ccc(Cn2c(SCC(=O)Nc3ccccc3C)nc3ncccc3c2=O)cc1	x	16.0
CCC(=O)N1CCNC(=O)C1CC(=O)Nc1ccc(C)c(Cl)c1 (stereo unspecified)	-2.1	6.0
CCNCC(=O)NCc1cccs1	x	-10.0
COC(=O)C1C(=O)CC(=O)CC1c1ccc(OC)cc1 (stereo unspecified)	-0.1	16.0
Cc1nc2c(C#N)c(-c3ccc(Cl)cc3)ccn2n1	0.7	x
Cc1ccc(NC(=O)CNCCCN2CCOCC2)cc1Br	-2.1	2.0
O=C(NCCc1ccccc1)c1ccc(NC2=NC3CS(=O)(=O)CC3S2)cc1 (stereo unspecified)	-1.6	5.0
Cc1ccc(NC(=O)COC(=O)c2cccs2)c(C)c1	1.4	-15.0
Cc1nnc(SCC(=O)Nc2ccc3c(c2)OCCO3)n1N	x	9.0
CCSc1nnc(NC(=O)c2c(-c3ccccc3Cl)noc2C)s1	x	-1.0
CC1SCC(=O)N(c2cc(Cl)ccc2Cl)C1=O (stereo unspecified)	2.4	x
CCN1CCCC1CNC(=O)CCCc1cn(CC)c2ccccc12 (stereo unspecified)	-1.2	-2.0
O=C(NCCC(c1ccccc1)c1ccco1)c1cccs1 (stereo unspecified)	0.1	2.0
Cc1nc2ccccc2nc1OCC(=O)Nc1ccccc1	x	-2.0
C=CCN(C)NC(=S)Nc1ccccc1	2.2	0.0
CCOc1ccc(NC(=O)c2ccc(-c3ccccc3F)o2)cc1	-0.7	24.0
CC(C)COc1cccc(C(=O)O)c1	x	18.0
C=CCC1CC(=O)N(c2ccc(C(C)(C)C)cc2)C1=O (stereo unspecified)	0.7	x
COc1ccc(CC(=S)N2CCOCC2)cc1	x	-4.0
O=C(Nc1ccccc1)O/N=C1/CCCc2occc21	x	17.0
Cc1cc(NC(=O)C2CCN(S(=O)(=O)c3ccccc3)CC2)ccc1-n1cnnn1	-1.7	6.0
CCn1nc(C(=O)O)c(=O)c2cc3c(cc21)OCO3	0.1&1.2	x
Cc1ccc(CCNC(=O)CCn2cnc3onc(-c4ccc(F)cc4)c3c2=O)cc1	x	9.0
CN1/C(=C\C(=O)COC(=O)CC2CCCC2)C(C)(C)c2ccccc21	x	-16.0
CC(=O)NCCn1c(SCc2ccccc2C)nc2ccccc2c1=O	3.3	7.0
Cn1ccsc1=NC(=O)c1ccc2c(c1)C(=O)N(Cc1ccccc1)C2=O	x	5.0
O=S(=O)(Nc1ccc2c(c1)nc1n2CCN(Cc2ccccc2)C1)c1ccccc1	x	11.0
CC(C)(Nc1ccccc1N)c1nc2ccccc2[nH]1	-0.2	2.0
Cc1nn(Cc2nnc(-c3cccs3)o2)c(C)c1Br	-2.2	x
CCn1c(C(=O)NCc2ccc(C)cc2)cc2oc3ccccc3c21	x	-15.0
CNC(=O)n1cc(Br)c(/C(N)=N\OCc2ccccc2)n1	x	-19.0
c1ccc(C(c2ccccc2)N2CCN(CCCc3c[nH]c4ccccc34)CC2)cc1	1.1	-14.0
CSc1nc(-c2cnccn2)nc(-c2ccco2)c1C#N	-0.1	x
O=C(/C=C/c1cnc2ccccc2n1)N1CCN(S(=O)(=O)c2ccccc2)CC1	x	13.0
CN1CCN(C2=C(C(=O)Nc3ccc(Cl)cc3)CC/C2=C\c2ccccc2)CC1	x	1.0
CC1Cc2ccccc2N1C(=O)COc1ncnc2sccc12 (stereo unspecified)	x	-5.0
O=C1/C(=C/c2ccsc2)Cc2ccccc21	-2.5	15.0
CCOc1ccc(-c2cn3cc(Cl)ccc3n2)cc1	-0.8	x
O=C(NCCN1CCCCC1)Nc1cccc(Cl)c1	-2.8	8.0
CC1=CC2=NC(C(F)(F)F)(C(F)(F)F)N=C(C)N2C=C1	3.5	9.0
COc1ccc(Cn2c(CN3C(=O)c4ccccc4C3=O)nc3cccnc32)cc1	x	-50.0
O=C(C1CC2c3ccccc3C1c1ccccc12)N1CCOCC1 (stereo unspecified)	0.7	7.0
Cc1nc(-c2ccc(-c3ccno3)s2)no1	x	25.0
Cc1ccc(C(=O)Nc2nnc(SCC(=O)N3CCCCC3)s2)cc1	x	-16.0
CCC(C)NC(=O)Nc1cccc2ccccc12 (stereo unspecified)	2.4	-7.0
CN(Cc1ccco1)C(=O)CSc1ccc2c(c1)OCCO2	x	-3.0
CCc1ccc(CNc2ccc3c(c2)ncn3CC)cc1	x	20.0
CCC(=O)Nc1sc2c(c1-c1nc3ccccc3s1)CCN(C(C)=O)C2	x	12.0
CCc1ccc(CNC(=O)C2CCN(S(=O)(=O)N3CCCCC3)CC2)cc1	-1.4	8.0
CCC(C)NC(=O)c1nc(-c2ccccc2)n(-c2ccccc2)n1 (stereo unspecified)	x	-15.0
CN1CCC(N(C)C(=O)c2ccccc2F)CC1	-3.5	6.0
Cc1sc2ncnc(SCC(=O)NC(=O)c3cccn3C)c2c1C	x	-11.0
Cc1ccc(P(=Nc2ccccc2C(F)(F)F)(OCCN2CCOCC2)C(C)(C)C)o1 (stereo unspecified)	x	17.0

Carrying on.
SMILES	MgrA DNA FP	S aureus helic
Cc1cc(C(=O)CSc2nnc(-c3cccs3)o2)c(C)n1CCc1ccc(F)cc1	x	-3.0
CCCCCn1c(=O)c(Cc2ccccc2)c(O)c2ccccc21	x	4.0
C=CCSc1nnc(NC(=O)c2ccc3c(c2)SC2=NS(=O)(=O)CCN23)s1	x	2.0
O=C(NCc1csc2ccc(Cl)cc12)c1ccno1	-4.5	x
Cc1cc(C(=O)CSc2nnc3ccccn23)c(C)n1C	x	41.0
Cn1c(/C=N/n2cnnc2)nc2ccccc21	-0.2	17.0
CC(C)Oc1cccc(NC(=O)Cc2ncc(C(F)(F)F)cc2Cl)c1	-1.5	x
CO[C@H]1C[C@@H]2CC[C@@H](C)[C@@](O)(O2)C(=O)C(=O)N2CCCC[C@H]2C(=O)O[C@H](C(C)CC2CC[C@@H](O)[C@H](OC)C2)CC(=O)[C@H](C)/C=C(\C)[C@@H](O)[C@@H](OC)C(=O)[C@H](C)C[C@H](C)/C=C/C=C/C=C/1C (stereo partly specified)	-0.2	x
CCn1c(COC(=O)CCOc2cc(C)ccc2C)nc2cc(S(=O)(=O)N(C)C)ccc21	x	8.0
Cn1c(SCc2ccc(-c3nnco3)cc2)nnc1C(F)(F)F	0.0	x
CCN(CC)S(=O)(=O)Cc1ccccc1	-2.5	18.0
Cc1ccc(C(=O)NC2CCCCCC2)cc1NC(=O)c1ccco1	x	-8.0
NC(=O)c1c(Cl)ncc2c1NCC2	-1.3	3.0
Cc1cccc(N2OC(C)(N(O)c3cccc(C)c3)CC2(C)C)c1 (stereo unspecified)	x	5.0
Cc1cc(C(=O)Cn2c(C)nc3ccccc32)c(C)n1-c1c(C)n(C)n(-c2ccccc2)c1=O	x	-18.0
Cn1ccnc1C(O)c1ccccc1 (stereo unspecified)	x	-2.0
NS(=O)(=O)c1ccc(NC(=O)COC(=O)c2cccc(N3C(=O)CCC3=O)c2)cc1	1.9	-2.0
O=C(CSc1ncnc2ccccc12)NC(c1ccccc1)c1ccccc1	-3.8	1.0
O=C(Nc1cccnc1)c1ccc2snnc2c1	x	18.0
O=C(CCN1CCC(c2ccc(Cl)s2)=N1)c1ccc(Cl)s1	x	-38.0

Quoted at random: 3 records from the list
SMILES	MgrA DNA FP	S aureus helic
O=C(CCN1CCC(c2ccc(Cl)s2)=N1)c1ccc(Cl)s1	x	-38.0
O=C(Nc1cccnc1)c1ccc2snnc2c1	x	18.0
Cn1ccnc1C(O)c1ccccc1 (stereo unspecified)	x	-2.0

Carrying on:
SMILES	MgrA DNA FP	S aureus helic
N#CCCn1cc(C(=O)CSc2ccccn2)c2ccccc21	x	-13.0
OCCCc1cc(-c2ccc(Cl)cc2)n[nH]1	1.6	x
C=CCN(CC(=O)O)S(=O)(=O)c1ccc(Cl)cc1	x	-1.0
CCn1c(SCC(=O)Nc2cccc(Cl)c2C)nnc1C1CC1	2.0	1.0
O=C(CCc1ccccc1)Nc1nccs1	-7.4	9.0
CCOC(=O)c1sc(NC(=O)c2ccccc2OC)nc1-c1ccccc1	x	24.0
Nc1nc2ccccc2oc1=O	-1.5	14.0
Cn1c(C(=O)NC2CCCC2)cc2oc3ccccc3c21	-2.2	3.0
CC(Oc1ccc(OC(F)(F)F)cc1)C(=O)O (stereo unspecified)	1.2	x
CCN(Cc1ccccc1)C(=O)c1cc2c(=O)oc3ccccc3c2s1	x	9.0
CCOC(=O)N1CCN(CC(O)COc2ccc(C3CCCCC3)cc2)CC1 (stereo unspecified)	x	-8.0
CCn1cc(/C=N/O)c2ccccc21	3.9	18.0
O=C(CCCN1C(=O)/C(=C\c2ccco2)SC1=S)Nc1ccc2c(c1)OCO2	x	-2.0
CC(C)C(=O)Nc1c(C(=O)c2ccc(F)cc2)oc2ccccc12	0.4	8.0
O=c1[nH]c2ccc(Nc3cc(N4CCOCC4)ncn3)cc2[nH]1	x	-9.0
COc1ccc(C(CC(=O)Nc2cccnc2)N2Cc3ccccc3C2=O)cc1 (stereo unspecified)	x	-13.0
Cc1csc2sc(/C=C(\C#N)S(C)(=O)=O)c(C)c12	-3.5	x
CC(C1CC1)N(C(=O)/C=C/c1ccccc1)c1ccccc1 (stereo unspecified)	-2.8	6.0
O=C(O)CCC(=O)N1CCc2cc(S(=O)(=O)NCc3cccs3)ccc21	x	-24.0
CC(O)(CC(=O)O)C(F)(F)F (stereo unspecified)	x	-9.0
CCOc1ccc2oc(C(=O)OCC(=O)N3CCCc4ccccc43)c(C)c2c1	x	-10.0
O=C(O)C1CC(=O)N(C2CCCC2)C1 (stereo unspecified)	-0.9	9.0
c1ccc(CN2CCSCC2)cc1	2.4	x
O=C(NC1CCCCCC1)c1c(O)c2ccccc2[nH]c1=O	0.6	11.0
COc1cccc(CNC(=O)c2[nH]c3cc(C)ccc3c2Sc2ccc(Cl)cc2)c1OC	4.9	10.0
Cc1ccc2nc(NC(=O)CCCC(=O)O)sc2c1	x	31.0
S=c1nc2[nH]c3ccc(Br)cc3c2n[nH]1	x	24.0
COC(=O)CC1Nc2ccccc2NC1=O (stereo unspecified)	x	-15.0
Cc1cc2nsnc2c2nsnc12	x	13.0
CN(C)S(=O)(=O)c1cccc(CSc2nc3ccccc3n2CCC#N)c1	x	-2.0
CN(C)c1cccc(N(C)C)c1C#N	-1.4	x

Only part of the results is shown (hit frequency here may not be typical).
